Screens as filed in PubChem BioAssay.
VDR inh – blocks the human vitamin D receptor; P11473; VDR-SRC2-3 peptide fluorescence polarization, 2 h; Potency, µM, without a hit: max response, negative = inhibition, most hits filed as inhibitors; 400,000 tested, 0.93% active; active = well fitted inhibition curve with a large enough effect; inconclusive = small, poorly fitted or top-dose-only effect, or another doubt; inactive = no such curve, though single readings can be large or run the other way; note: series mostly up to about 120 µM
Target sequence (P11473 whole entry, looked up): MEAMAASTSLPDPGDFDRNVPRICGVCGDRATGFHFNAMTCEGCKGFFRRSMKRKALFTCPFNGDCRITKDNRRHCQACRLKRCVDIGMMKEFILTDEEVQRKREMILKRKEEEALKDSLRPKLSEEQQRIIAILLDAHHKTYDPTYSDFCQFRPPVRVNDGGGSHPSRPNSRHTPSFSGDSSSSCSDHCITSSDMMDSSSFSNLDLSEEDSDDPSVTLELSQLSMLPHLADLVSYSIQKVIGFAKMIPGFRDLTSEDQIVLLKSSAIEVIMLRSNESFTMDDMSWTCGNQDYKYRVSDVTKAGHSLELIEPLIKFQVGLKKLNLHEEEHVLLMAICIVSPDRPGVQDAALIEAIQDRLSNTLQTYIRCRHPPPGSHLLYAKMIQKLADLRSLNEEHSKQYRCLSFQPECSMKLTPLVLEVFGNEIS
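Compounds are added to VDR with labelled SRC2-3 coactivator peptide and held 2 h at room temperature. Inhibition of the VDR–peptide interaction is then read as a change in fluorescence polarization.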
An asterisk follows results filed as active; u = inconclusive; & = joins results of further samples; [ ] = another dose, or the depositor's remark. % is set by controls: 0 for no effect and ±100 for the full control effect; potency is the fitted concentration of half-maximal effect. These rows are one share of the data (hit frequency here may not be typical).

VDR inh	Molecule
15.4%	Cc1cc(C)cc(Oc2c(C(F)(F)F)oc3cc(OCC(=O)NC4CCCCC4)ccc3c2=O)c1
-6.5%	Cc1cc(Cl)ccc1OCC(=O)Nc1ccccc1N1CCOCC1
u	CCCCN(C)C(=O)CSc1c2c(nc3ccc(Cl)cc13)CCCC2
13.7%	COc1cc(-c2cc(C(=O)Nc3ccncc3)c3ccccc3n2)cc(OC)c1OC
-2.0%	COc1ccc(NC(=O)CCSc2nc(-c3ccco3)cc(C(F)(F)F)n2)cc1
-4.3%	CCOC(=O)c1cnc2ccc(OC)cc2c1Nc1ccc(N2CCN(C)CC2)cc1
-11.5%	COc1cc(NC(=O)C2CCCN2C(=O)C2CCC(C)CC2)cc(OC)c1OC (configuration not stated)
11.0%	c1ccc(-c2noc(CC3CCCCC3)n2)nc1
9.4%	O=C(NC1CCCCC1)c1ccccc1NC(=O)C1CC(=O)N(c2ccc(Cl)cc2)C1 (configuration not stated)
-1.1%	O=C(Nc1cc(F)ccc1F)c1ccc(-n2cncn2)c([N+](=O)[O-])c1
6.7%	COc1ccccc1C(=O)Nc1ccc2nc(SCC(=O)N(C)c3ccccc3)sc2c1
1.7%	CC12CN3CC(C)(CN(C1)C3c1ccccc1)C2O (configuration not stated)
5.2%	COc1ccc(OC)c(N(CC(=O)Nc2ccc3c(c2)OCCO3)S(C)(=O)=O)c1
6.2%	CCCCCCCCNC(=O)c1cccnc1SCC(=O)Nc1ccccc1OC
-5.8%	O=C1c2cccnc2C(O)N1C1CCCCC1 (configuration not stated)
2.3%	O=C(c1ccccc1)c1ccc2nc[nH]c2c1
6.4%	CN(C)C(=O)CN1C(=O)c2cccc3cccc1c23
-2.7%	Cc1ccc(-n2nnnc2-c2ccccc2Br)cc1
-10.2%	COc1ccc(C(=O)NCCNc2nc3c(C)cccc3cc2C#N)cc1
4.9%	C/C(CCc1ccccc1)=N\NC(=O)C(=O)Nc1cccc(Cl)c1
-0.2%	Cc1ccc2c(c1)C(C)(C)[C@]1(C)NC(=O)CCN21
5.6%	COc1cc(NC(=O)CN(C)S(=O)(=O)c2ccc3c(c2)CC(C)N3C(C)=O)cc(OC)c1OC (configuration not stated)
5.1%	CCOc1ccc(OCC)c(NC(=O)c2cc(C)nc3c2c(C)nn3-c2cccc(Cl)c2C)c1
-3.7%	Cc1ccc(Cc2cc(-c3ccc(C)cc3)n[nH]c2=O)cc1
u	CN(C)c1ccc(-c2nccc(Nc3ccc(F)cc3)n2)cc1
-5.7%	COc1ccc(C(CCNCc2ccc(N(C)C)cc2)C(C)C)cc1 (configuration not stated)
11.8%	CCN1C(=O)[C@H]2[C@@H](c3ccc(-c4ccc(C(C)=O)cc4)cc3)N[C@@](C)(C(=O)OC)[C@H]2C1=O
-19.2%	O=C1NC(=O)/C(=C/c2ccco2)N1
-1.7%	CS(=O)(=O)Nc1ccc(S(=O)(=O)Nc2nccs2)cc1
6.1%	CC(CC(=O)O)n1nnc2ccccc21 (configuration not stated)

Reformatted: entries from further up
smiles	VDR inh
Cc1ccc2c(c1)C(C)(C)[C@]1(C)NC(=O)CCN21	-0.2%
COc1cc(NC(=O)CN(C)S(=O)(=O)c2ccc3c(c2)CC(C)N3C(C)=O)cc(OC)c1OC (configuration not stated)	5.6%
CCOc1ccc(OCC)c(NC(=O)c2cc(C)nc3c2c(C)nn3-c2cccc(Cl)c2C)c1	5.1%
Cc1ccc(Cc2cc(-c3ccc(C)cc3)n[nH]c2=O)cc1	-3.7%

Going on with the list:
VDR inh	Molecule
-9.6%	COc1ccc(-n2cnc3cc(C(=O)N4CCOCC4)ccc32)cc1
-6.3%	CN(C)S(=O)(=O)c1ccc(C(=O)Nc2c(C(=O)Nc3ccc(F)cc3)oc3ccccc23)cc1
5.7%	COc1ccc(NC(=O)/C(C#N)=C/c2ncc([N+](=O)[O-])n2C)c(OC)c1
5.3%	CN(NC(=O)c1ccccc1Cl)c1ncc(C(F)(F)F)cc1Cl
-12.0%	O=C(O)C1=C[C@@H](c2ccc(Br)cc2)C[C@@H](OCCCCO)O1
-12.5%	CCOC(=O)CN1N=C(c2ccc(Cl)cc2)CCC1=O
-1.0%	O=C(CN1CCCC1)N1c2ccccc2C=Cc2ccccc21
11.5%	CN(CC(=O)Nc1ccc(S(N)(=O)=O)cc1)c1ccccc1
1.0%	O=C(NC(Cc1ccccc1)c1nc2ccccc2[nH]1)C1CC(=O)N(c2ccc3c(c2)OCCO3)C1 (configuration not stated)
-13.7%	CCOC(=O)c1cc(=O)c2ccc(OCC(=O)Nc3ccc(F)cc3)cc2o1
-4.5%	O=C(CNCCO)N1CCc2ccccc21
50.1µM*	COc1cccc(-c2nc(NCc3cccs3)c3ccccc3n2)c1
-7.7%	CCc1ccc(/C=C2/Sc3ccccc3N(CC(=O)NCCCN3CCOCC3)C2=O)cc1
3.2%	CC(C)(C)c1ccc(C(=O)NC(CC(=O)O)c2ccc(OC3CCCC3)cc2)cc1 (configuration not stated)
26.6%	COc1ccccc1NC(=O)C(NC(=O)OC(C)(C)C)C(C)OCc1ccccc1 (configuration not stated)
11.3%	Cc1cc(S(=O)(=O)C(CNC(=O)COc2ccc(Cl)cc2)c2cccs2)ccc1F (configuration not stated)
-4.0%	COc1cccc(OC)c1OC(=O)c1ccccc1
-15.4%	O=C(CSc1nc2ccc([N+](=O)[O-])cc2[nH]1)NC1CCCCCC1
u	COc1cc(/C=C(/C#N)c2nc3ccccc3[nH]2)ccc1OCC(=O)Nc1ccccc1C
1.5%&17.7%&3.7%	OCC(O)C(O)C(O)C(O)CO (configuration not stated)
5.7%	CN(C)c1ccc(/C=N/O)cc1
-13.2%	CCCn1c(C2CCCN2c2nc(-c3ccc(OC)cc3)cs2)nc2ccccc21 (configuration not stated)
-7.8%	COc1cccc(NC(=O)N2CCCC2C(=O)NCc2ccccc2F)c1 (configuration not stated)
-18.4%	COCCNC(=O)c1onc(CCl)c1C(=O)OC
13.1%	Cc1ccc(S(=O)(=O)N2CCCCC2)cc1C(=O)OC(C)C(=O)NCC1CCCCC1 (configuration not stated)
1.2%	COc1ccc(N2C(=O)C(Cl)=C(Nc3ccc(OC)cc3OC)C2=O)cc1
-0.8%	Cc1cccc(NC(=O)COc2ccc(Br)cc2)n1
-14.2%	CC12CCC(C1)C(C)(C)C2OC(=O)c1ccccc1C(=O)O (configuration not stated)
-2.0%	CN(c1ccccc1)c1nc(N)c([N+](=O)[O-])c(Nc2ccccc2)n1
-18.4%	O=C(N[C@@H](c1ccccc1)[C@@H]1C[C@H]1C(=O)NCc1ccccn1)OCc1ccccc1

Random excerpt: 5 records from the list.
VDR inh	Molecule
5.7%	CN(C)c1ccc(/C=N/O)cc1
1.2%	COc1ccc(N2C(=O)C(Cl)=C(Nc3ccc(OC)cc3OC)C2=O)cc1
13.1%	Cc1ccc(S(=O)(=O)N2CCCCC2)cc1C(=O)OC(C)C(=O)NCC1CCCCC1 (configuration not stated)
-0.8%	Cc1cccc(NC(=O)COc2ccc(Br)cc2)n1
-18.4%	O=C(N[C@@H](c1ccccc1)[C@@H]1C[C@H]1C(=O)NCc1ccccn1)OCc1ccccc1

(continued)
VDR inh	Molecule
8.1%	CCc1nn(CC(=O)NC(C)CCc2ccccc2)c(=O)c2cc3c(OC)cccc3n12 (configuration not stated)
6.8%	CC(Oc1cc(F)ccc1[N+](=O)[O-])C(=O)Nc1ccc(S(=O)(=O)N2CCCC2)cc1 (configuration not stated)
24.8%	C[C@@H]1C=C(C(=O)N2CCN(Cc3ccc4c(c3)OCO4)CC2)O[C@H](OCCCCO)C1
-17.6%	Cc1ccc(/C=C/C(=O)Nc2nccs2)o1
-4.0%	COC(=O)c1cc(NC(=O)c2cc(C(C)(C)C)nn2Cc2cccc(C)c2)ccc1N1CCOCC1
3.0%	FC(F)(F)c1cnc(N2CCC(=NOCc3ccc(Cl)cc3)CC2)c(Cl)c1
-18.0%	COc1cc(OC)c(NC(=O)CCc2c(C)nc3ncnn3c2C)cc1Cl
-5.3%	Cc1ccccc1C(=O)Nc1ccccc1
15.1%	CC1CCC(C(C)C)C(OC(=O)C[n+]2cc(-c3ccc(Cl)cc3)n3c2CCCCC3)C1 (configuration not stated)
1.3%	CCOc1ccccc1C(=O)Nn1c(C2CCC2)nc2ccccc2c1=O
-21.0%	O=C(COC(=O)c1ccccc1O)NC12CC3CC(CC(C3)C1)C2
4.1%	O=C(Nc1ccc(N2CCOCC2)cc1)c1ccc(COc2ccccc2)cc1
-5.8%	CCCCCOc1ccc(Br)cc1/C(C)=N/NC1=NCCN1
-4.9%	COCCNC(=O)c1ccccc1NC(=O)c1nsc2ccccc12
11.0%	CN(C(=O)CN1C(=O)/C(=C/c2ccc(F)cc2)SC1=S)C1CCS(=O)(=O)C1 (configuration not stated)
-6.1%	Cc1cc(C)c2c(-n3cccc3)nn(CC#N)c2n1
-8.2%	CC1(C)Cc2ccccc2C(N)=C1C#N
-3.8%	COc1cccc(NC(=O)Cn2cc(C(=O)c3ccc(C)cc3)c(=O)c3cc(OC)ccc32)c1
11.1%	O=C(c1ccc([N+](=O)[O-])cc1)N1CCN(C(=O)c2ccco2)CC1
-4.4%	Cc1ccc(C)c(COC(=O)c2cccc(S(=O)(=O)N3CCCC3)c2)c1
3.6%	CCC(C)(C)C1CCc2[nH]nc(C(=O)NN)c2C1 (configuration not stated)
-2.7%	COc1ccc(NC(=O)CN(Cc2ccccc2)S(=O)(=O)c2ccc(C)cc2)cc1Cl
-12.6%	O=c1c2ccccc2oc2ccc(Oc3ccccc3)cc12
-8.9%	CCN1CCN(CCNC(=O)c2ccc3c(c2)NC(=O)/C(=C\c2ccc(OC)c(OC)c2)S3)CC1
79.4µM*	COc1ccc(C2=CC3=C(Br)C(=O)C(C)(OC(=O)c4ccco4)C(=O)C3=CO2)cc1 (configuration not stated)
5.6%	COc1ccc(OCCCN2CCCC(C)C2)cc1 (configuration not stated)
-6.2%	COc1cccc(N(CC(=O)NC2CCCC2)C(=O)Cn2nnc(-c3ccc(C)o3)n2)c1
-3.9%	CCc1ccc(NC(=O)CC2C(=O)N(c3ccc(OC)cc3)C(=O)N2CCOC)cc1 (configuration not stated)
2.5%	COc1ccccc1CNC(=O)c1cnn2c(C)c(Cc3ccc(F)cc3)c(C)nc12
-7.5%	CCOc1cc(C2C(C(=O)N3CCCCC3)=C(C)NC3=C2C(=O)CC(C)(C)C3)ccc1O (configuration not stated)
12.3%	CN(C1(C)CCS(=O)(=O)C1)S(=O)(=O)c1ccc(F)cc1 (configuration not stated)
-18.8%	Cc1ccc(S(=O)(=O)N2CCCC2CNC(=O)c2ccccc2)cc1 (configuration not stated)
11.0%	COc1cccc(CN2CCN(C(=O)CC(C)C)CC2)c1
-1.1%	CCCC(=O)c1ccc(N2CCN(S(=O)(=O)c3ccc(C)cc3)CC2)c(F)c1
-0.3%	Cc1ccccc1CN1C[C@@H]2C[C@@H](c3cnc(N4CCOCC4)s3)N3CCC[C@@]23C1=O
4.0%	CCOC(=O)CN(C(=O)COc1nc(-c2ccccc2)cc(C)c1C#N)c1cccc(OC)c1
-8.6%	COc1ccc2nc3oc(C(=O)NC4CCN(Cc5ccccc5)CC4)cc3cc2c1
14.1%	CCC(C(=O)N1CCN(c2ccccc2)CC1)n1c(C)c2cnn(-c3ccccc3)c(=O)c2c1C (configuration not stated)
7.1%	CCOCCCNC(=O)CCS(=O)(=O)Cc1ccc(C)cc1
3.6%	Cc1cc(/C=C(\C#N)C(=O)Nc2ccc(Cl)cc2)c(C)n1-c1ccc(N2CCOCC2)c([N+](=O)[O-])c1
-15.7%	O=C(CN1C(=O)c2cccnc2Oc2ccc(Cl)cc21)Nc1ccc(F)cc1
-10.8%	Oc1ccccc1OCCOc1ccccc1OCCOc1ccccc1O
3.6%	Cc1cc(OCCCCN2C(=O)NC(C)(C)C2=O)ccc1[N+](=O)[O-]
-3.2%	COc1ccc(/C=C2\N=C(C)N(c3ccc4ccccc4c3)C2=O)cc1OC
9.5%	COc1ccc(CCNC(=O)NCc2noc3ccccc23)c(OC)c1
-8.9%	CCOc1ccc(CCNC(=O)COC(=O)Cc2ccc(F)cc2)cc1OCC
-8.3%	CCOc1ccc(NC(=O)c2cccc(NC3=NC4CS(=O)(=O)CC4S3)c2)cc1 (configuration not stated)
5.4%&4.6%	OCc1nc2ccccc2n1Cc1c(F)cccc1Cl
-23.4%	CCOC(=O)CC(=O)NC(CC(=O)OC)c1ccc(Br)cc1 (configuration not stated)
-17.4%	O=C(c1ccccc1F)N1CCN(c2ccc([N+](=O)[O-])c(N3CCOCC3)c2)CC1

Following part
VDR inh	Molecule
-14.2%	COc1ccc(N(C(=O)Cn2nnc3ccccc32)C(C(=O)NC(C)(C)C)c2ccc(OC)c(O)c2)cc1 (configuration not stated)
-16.2%	Cc1c(C)c2c(OCC(=O)O)cc3c(c2oc1=O)CCC(C)(C)O3
-6.8%	CCN(CC)CCn1c(SCC(=O)NCCC2=CCCCC2)nc2c(sc3ccccc32)c1=O
-0.4%	CC1CN(C(=S)Nc2ccc(S(N)(=O)=O)cc2)CC(C)O1 (configuration not stated)
1.1%	CCC1(C)N([O-])C(C)=C(c2ccccc2)[N+]1=O (configuration not stated)
-7.9%	Cc1cc(C(=O)COC(=O)c2ccncc2)c(C)n1Cc1ccco1
15.3%	CC(=O)/C(=N\Nc1ccc(C)cc1)N1CCOCC1
5.1%	COc1ccc(CNC(=O)C2CCN(S(=O)(=O)c3ccc4nc5c(c(C(=O)O)c4c3)CCCC5)CC2)cc1
1.1%	CCOc1ccccc1NC(=O)Cn1nc(-c2ccco2)ccc1=O
-0.6%	Cc1cccc(CCn2c(=O)c3ccccc3n(Cc3ccccc3C)c2=O)c1
-9.2%	Cc1ccc(-n2cc(S(=O)(=O)c3ccc(C)cc3)[nH]c2=O)cc1
-9.4%	CCN(CC)C(=O)CSc1nc(Cc2ccccc2)nc2ccccc12
-9.7%	Cc1cc(C)cc(OCC(=O)OCC(=O)c2cc(C)n(C3CC3)c2C)c1
39.4%&8.5%[activator]	O=C(O)c1ccc(Nc2ncnc3scc(-c4ccccc4)c23)cc1
